Source: PubChem BioAssay
GIRK2 act = activators of human GIRK2 potassium channels | calls only for hits at 25 µM | hit rate 0.05% among 63,000 | HEK293-GIRK2 thallium flux, Thallos fluorescence;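 active = among the strongest 0.2% of first-round signals and kept after retests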;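 note: first round at about 10 µM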
Target sequence (P48051 whole entry, looked up): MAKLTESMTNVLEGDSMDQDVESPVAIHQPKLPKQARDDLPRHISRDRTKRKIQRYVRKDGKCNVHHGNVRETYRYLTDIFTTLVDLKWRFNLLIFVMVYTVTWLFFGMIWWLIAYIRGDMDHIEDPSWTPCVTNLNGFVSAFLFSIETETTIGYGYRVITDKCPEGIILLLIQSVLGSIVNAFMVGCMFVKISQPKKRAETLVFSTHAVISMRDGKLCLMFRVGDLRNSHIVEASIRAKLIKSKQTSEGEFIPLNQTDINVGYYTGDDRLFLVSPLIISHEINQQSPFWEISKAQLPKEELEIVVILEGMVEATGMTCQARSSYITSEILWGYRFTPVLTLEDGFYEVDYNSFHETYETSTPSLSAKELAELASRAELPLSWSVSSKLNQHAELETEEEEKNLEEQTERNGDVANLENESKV
Calls only; i = inactive.

| GIRK2 act | mol |
| --- | --- |
| i | COc1ccc(N2CC(C(=O)N3CCC(c4nnc(C)s4)CC3)CC2=O)cc1 (stereo not given) |
| i | CCOC(=O)N1CCN(c2nnc(SCC(=O)Nc3ccccc3)s2)CC1 |
| i | O=S(=O)(NCCOc1ccc(-c2ccccc2)nn1)c1ccc(F)c(Cl)c1 |
| i | O=C(CCn1c(=O)[nH]c2ccccc2c1=O)N1CCN(Cc2ccccc2)CC1 |
| i | CN1C(=O)C(C)(C)COc2cc(NC(=O)NCc3cccs3)ccc21 |
| i | CN(C)CCN(C(=O)c1ccc(C#N)cc1)c1nc2ccc(S(C)(=O)=O)cc2s1 |
| i | CC1(C)CC[C@]2(C(=O)O[C@@H]3O[C@H](CO)[C@@H](O)[C@H](O)[C@H]3O)CC[C@]3(C)C(=CCC4[C@@]5(C)CC[C@H](O[C@@H]6O[C@H](C(=O)O)[C@@H](O)[C@H](O)[C@H]6O)C(C)(C)C5CC[C@]43C)C2C1 (stereo not given in full) |
| i | O=[N+]([O-])c1ccc(CSc2ncc(CO)n2Cc2ccc(Cl)cc2)cc1 |
| i | Cc1nc2scc(C)n2c(=O)c1NC(=O)Nc1ccc(Cl)cc1Cl |
| i | O=C(CCCn1nnc2ccccc2c1=O)Nc1ccc(F)cc1 |
| i | COc1ccc2nc(-n3nc(C)cc3NC(=O)C3=COCCO3)sc2c1 |
| i | O=C(Nc1ccc(F)c(F)c1)C(=O)N1CCN(c2ccccc2)CC1 |
| i | Cc1ccc(-c2csc3c(=O)n(CC(=O)NC4CCCC4)cnc23)cc1 |
| i | CS(=O)(=O)Nc1ccc(Cl)c(N2CCCS2(=O)=O)c1 |
| i | O=C(c1csc(Nc2ccc(OC(F)F)cc2)n1)N1CCN(c2ccccn2)CC1 |
| i | NS(=O)(=O)c1ccc(CCNC(=O)C(c2ccccc2)n2cccc2)cc1 (stereo not given) |
| i | O=C1CC(C(=O)Nc2ccc(C(F)(F)F)cc2)n2c(nc3ccccc32)N1 (stereo not given) |
| i | COc1ccc(-c2coc3c4c(ccc3c2=O)OCN(c2ccc(F)c(F)c2)C4)cc1OC |
| i | O=C(NCCc1nc(C2CC2)cc(C(F)(F)F)n1)c1cc(-c2ccco2)on1 |
| i | COCCNC(=O)CSc1nc(-c2ccc(SC)cc2)[nH]c1-c1ccc(OC)cc1 |
| i | COc1cc(S(=O)(=O)N2CCN=C2c2ccccc2)c(OC)cc1Br |
| i | COc1ccccc1NC(=O)Nc1ccc(-c2csc3nc(C)cc(=O)n23)cc1 |
| i | CC(C)(C)c1ccc(OCC(=O)Nc2nc(-c3ccncc3)cs2)cc1 |
| i | Cc1ccc(Nc2ccc(NS(=O)(=O)c3ccc(F)cc3F)cc2)nn1 |
| i | CC1Cc2ccccc2N1C(=O)c1ccc(S(=O)(=O)N(C)C)o1 (stereo not given) |
| i | Nc1c(-c2ccccn2)nsc1C(=O)NCc1ccc(C(F)(F)F)cc1 |
| i | COc1ccc(Cl)cc1NC(=O)CSc1nc2cc(OC)c(OC)cc2c2nc(C)nn12 |
| i | COc1ccc(-c2cn3c(C(=O)Nc4ccncc4)csc3n2)cc1 |
| i | Cc1nc(C)c(C(=O)N2CCC(COCc3ccc(Cl)cc3)CC2)s1 |
| i | COc1ccc(S(=O)(=O)N2CCCCC2CC(=O)NCc2ccccc2Cl)cc1 (stereo not given) |
| i | CNC(=O)Cc1csc(NC(=O)c2cc(-c3cccc(OC)c3)nn2C)n1 |
| i | CN(C)S(=O)(=O)c1ccc(C(=O)Nc2ccc(Cl)c3ncsc23)cc1 |
| i | O=C(Nc1ccc(-n2nnc(C(=O)N3CCCC3)n2)cc1)c1cccc(Cl)c1 |
| i | O=C(NCC1CCN(C(=O)c2ccoc2)CC1)c1cccc(Cl)c1 |
| i | CN(C)S(=O)(=O)c1ccc(C(=O)Nc2n[nH]c(=S)s2)o1 |
| i | COc1cc2ncn(-c3cc(O[C@H](C)c4ccccc4Cl)c(C(N)=O)s3)c2cc1OC |
| i | CC(C)CCN1C(=O)C(C)(C)COc2ccc(NC(=O)COc3ccc(Cl)cc3)cc21 |
| i | CCn1c(C)cc2c(c1=O)C(C(C)C)C(C#N)=C(N)O2 (stereo not given) |
| i | CNC(=O)CN1CC(c2nc(Cc3ccccc3)no2)C1 |
| i | Cc1nn(-c2ccccc2)c(OC(=O)C23CC4CC(CC(C4)C2)C3)c1S(=O)(=O)c1ccccc1 |
| i | Cc1cc(NC(=O)C(=O)NCC(O)c2ccc3c(c2)CCO3)no1 (stereo not given) |
| i | O=c1[nH]c2nc(NCc3cccc(C(F)(F)F)c3)ncc2c(=O)n1C1CCCC1 |
| i | CC(C)Oc1ccc(C(=O)NCC#CCOc2ccc3c(c2)OCO3)cc1 |
| i | CC1CCN(C(=O)C2CCC(Cn3c(=O)c4sccc4n(Cc4ccc(F)cc4)c3=O)CC2)CC1 (stereo not given) |
| i | CS(=O)(=O)N1CCC(C(=O)N2CCN(c3cc(Nc4ccccn4)ncn3)CC2)CC1 |
| i | Cc1nc(-c2cccs2)sc1CNC(=O)c1cc(=O)[nH]c(=O)[nH]1 |
| i | COc1ccc(-c2ccc(=O)n(CCNS(=O)(=O)c3ccc(C)cc3)n2)cc1 |
| i | CCNC(=O)Nc1nc(-c2ccc(OC)cc2)c(C)s1 |
| i | Cc1nn(C)cc1C(=O)Nc1ccc(Cl)c(Cl)c1 |
| i | COCCn1c(=O)c2c(nc3n2CC(C)CN3c2cccc(C)c2)n(C)c1=O (stereo not given) |

Other structures
| GIRK2 act | mol |
| --- | --- |
| i | CCOC(=O)Nc1ccc(N2CCCS2(=O)=O)cc1 |
| i | COc1ccc(C(C)NC(=O)c2nnn(-c3ccc(C)c(C)c3)c2C)cc1 (stereo not given) |
| i | O=C(Cn1c(=O)oc2ccccc21)N1CC(c2nc3ccccc3[nH]2)C1 |
| i | CC12CCC(C/C1=N/OCC(O)CN1CCN(CCc3ccccc3)CC1)C2(C)C (stereo not given) |
| i | Cc1cccc(-c2nn3c(N4CCN(c5nc(C)cc(C)n5)CC4)cc(C)nc3c2C)c1 |
| i | CCOC(=O)N1CCN(C(=O)CSc2nnc(C)c3cnn(-c4ccc(F)cc4)c23)CC1 |
| i | CCOc1ccc(NC(=O)Cn2nc(-c3ccccc3)c3sc(N4CCOCC4)nc3c2=O)cc1 |
| i | COCC(C)NC(=O)C(=O)NCCc1ccccc1 (stereo not given) |
| i | COCCNC(=O)c1cc(-c2cccs2)nn1C |
| i | O=C(NC1CCCC1)c1cc(-c2ccc(Br)cc2)on1 |
| i | Cc1cc(C)c2sc(N(CCCn3ccnc3)C(=O)Cc3ccccc3)nc2c1 |
| i | COc1ccc(NC(=O)Cn2nc3ccc(SC(C)C)nn3c2=O)cc1Cl |
| i | COc1ccc(NC(=O)c2ccc3nn(CC(=O)Nc4ccccc4C(F)(F)F)c(=O)n3c2)cc1 |
| i | COc1ccc(Cl)cc1NC(=O)N1CCC(C(=O)Nc2nccs2)CC1 |
| i | COc1ccc(Cl)cc1NC(=O)CCc1csc(NC(=O)c2ccc[nH]c2=O)n1 |
| i | Cc1cc(C)n(-c2nc3c(c(=O)n(CC(N)=O)c(=O)n3C)n2Cc2ccccc2C)n1 |
| i | O=C(NCCCn1ncccc1=O)c1cc(-c2ccco2)on1 |
| i | O=C(Cn1nc2c(SC3CCCCC3)nccn2c1=O)N1CCN(c2ccc(F)cc2)CC1 |
| i | CCOCCn1c(=O)c2c(nc3n2CCCN3c2ccccc2C)n(C)c1=O |
| i | Cc1ccc2nc(-c3ccc(NC(=O)c4ccc(-n5cccn5)nn4)cc3)sc2c1 |
| i | Cn1nnnc1SCC(=O)N1CCN(c2ccc(-c3noc(C4CC4)n3)cn2)CC1 |
| i | COc1ccc(S(=O)(=O)N2CCN(c3cccc(C(F)(F)F)c3)CC2)cc1OC |
| i | Cc1cc(C)c(NC(=O)Cn2cccc(-c3nc(-c4ccc(Br)cc4)no3)c2=O)c(C)c1 |
| i | COC(=O)c1ccc(OC(=O)c2nc(SC)ncc2Cl)cc1 |
| i | O=C(NCCC(O)C1CC1)c1ccc(Cl)s1 (stereo not given) |

Five of these compounds, set out differently.
SMILES	GIRK2 act
O=C(NC1CCCC1)c1cc(-c2ccc(Br)cc2)on1	i
Cc1cc(C)c2sc(N(CCCn3ccnc3)C(=O)Cc3ccccc3)nc2c1	i
COc1ccc(NC(=O)Cn2nc3ccc(SC(C)C)nn3c2=O)cc1Cl	i
COc1ccc(NC(=O)c2ccc3nn(CC(=O)Nc4ccccc4C(F)(F)F)c(=O)n3c2)cc1	i
COc1ccc(Cl)cc1NC(=O)N1CCC(C(=O)Nc2nccs2)CC1	i

Carrying on.
| GIRK2 act | mol |
| --- | --- |
| i | O=C1CCSCC(C(=O)N2CCN(c3ccccn3)CC2)N1 (stereo not given) |
| i | O=C(NCCC(O)C1CC1)C(=O)Nc1cc2c3c(c1)CCN3C(=O)CC2 (stereo not given) |
| i | CCSc1ccccc1C(=O)Nc1nnc(-c2cc(C)oc2C)o1 |
| i | COC(=O)c1ccc2c(=O)n(CCC(=O)N3CCN(c4ccc(C(C)=O)cc4)CC3)c(=S)[nH]c2c1 |
| i | CC(=O)N1CCc2c(sc(NC(=O)c3cc(C)n(C)n3)c2-c2nc3ccccc3s2)C1 |
| i | O=C(NCc1cccc2ccccc12)N1CCCC(c2nnc(C(F)(F)F)o2)C1 (stereo not given) |
| i | Cn1c(=N)c(S(=O)(=O)c2ccc(F)cc2)cc2c(=O)n3ccccc3nc21 |
| i | O=C(CCn1cnc2ccccc2c1=O)Nc1cc(N2CCOCC2)ncn1 |
| i | O=C(CSC1CCCC1)Nc1cccc2ccc(-n3cccc3)nc12 |
| i | O=C(CSc1nc2ccccc2o1)N1CC(c2nc(-c3cccs3)no2)C1 |
| i | COc1cccc(S(=O)(=O)Nc2ccc(C(=O)N3CCN(C(=O)c4ccco4)CC3)cc2)c1 |
| i | Cc1ccc2sc(N(Cc3ccncc3)C(=O)c3ccc(S(=O)(=O)C(C)C)cc3)nc2c1C |
| i | CN(c1ccccc1)S(=O)(=O)c1ccc(C(=O)Nc2ccc(Cl)c3ncsc23)cc1 |
| i | COc1cc(Br)c(C2NC(=O)NC(C)=C2C(=O)Nc2ccc(Cl)cc2)cc1OC (stereo not given) |
| i | COC1(CNC(=O)c2c(F)cccc2Cl)CCSC1 (stereo not given) |
| i | CCOc1ccc(NC(=O)C(C)Cn2nc(C)c(C)c2C)cc1 (stereo not given) |
| i | CCCNC(=O)Cn1nc2c(c1NC(=O)COc1ccccc1F)CSC2 |
| i | CC1CCCN(c2ccc(-c3noc(CN4CCN(c5ccccc5)CC4)n3)cn2)C1 (stereo not given) |
| i | Cn1c(CN2CCN(CC(=O)Nc3cccc(Cl)c3)CC2)nc2ccccc21 |
| i | CCNS(=O)(=O)c1ccc(NC(=O)c2ccc3c(c2)OCO3)cc1 |
| i | O=C(Nc1nnc(C2CC(=O)N(c3ccccc3)C2)o1)C1CCCN1S(=O)(=O)c1cccs1 (stereo not given) |
| i | CCC(C(=O)Nc1cc(F)ccc1F)n1cc(-c2nc(-c3cnccn3)no2)ccc1=O (stereo not given) |
| i | Cn1ccnc1N1CCN(Cc2ccccn2)CC1 |
| i | COc1cc(-c2c(NC(=O)C(C)C)n(C)c3ccccc3c2=O)cc(OC)c1OC |
| i | O=C(Nc1ccc(F)cc1)Nc1ccc2c(c1)CCCN2C(=O)c1cccs1 |
| i | COC(=O)c1cn(Cc2ccc(OC)c(F)c2)nc1S(=O)(=O)N1CCCC(C)C1 (stereo not given) |
| i | CS(=O)(=O)N1CCN(CCNC(=O)NC(c2ccccc2)c2ccccc2)CC1 |
| i | COc1cc(-c2noc(C3CC(=O)N(c4ccc(F)cc4)C3)n2)cc(OC)c1OC (stereo not given) |
| i | O=C(COc1ccccc1F)N1CC(c2nc3ccccc3[nH]2)C1 |
| i | N#Cc1nc(-c2ccc(Cl)cc2)oc1N1CCN(C(=O)c2cccc(Cl)c2)CC1 |
| i | COc1ccccc1NC(=O)CSc1nccnc1N1CCC(Cc2ccccc2)CC1 |
| i | Cc1nnsc1C(=O)N1CCC(C(=O)Nc2nccs2)CC1 |
| i | O=C(Nc1nnc(C2CC(=O)N(c3ccccc3)C2)o1)c1ccc(Cl)s1 (stereo not given) |
| i | COc1ccc(-n2c(C)cn3c4c(=O)n(Cc5cccc(C)c5)c(=O)n(C)c4nc23)c(OC)c1 |
| i | CCOc1ccccc1C(=O)NC1CC(=O)N(c2ccc(C)c(C)c2)C1 (stereo not given) |
| i | COc1cc(C(=O)NCCN2CCN(c3ccc(F)cc3)CC2)cc(OC)c1OC |
| i | COc1ccc(S(=O)(=O)N2CCCc3cc(NC(=O)C(C)C)ccc32)cc1 |
| i | CCOC(=O)c1sc2cccc(F)c2c1S(=O)(=O)Nc1cccc(C)c1 |
| i | CN1CCN2c3ncccc3Cc3ccccc3[C@@H]2C1 |
| i | CCc1ccc(-n2cc(C(=O)OCc3cc(=O)n4ccccc4n3)c3ccccc3c2=O)cc1 |
| i | COCCN(Cc1ccoc1)C(=O)Nc1cccc(OC)c1OC |
| i | O=C(NC1CCCCC1)N1CCN(CC(O)c2ccco2)CC1 (stereo not given) |
| i | CC(C)N(Cc1ccccc1)C(=O)C(=O)c1c[nH]c2ccccc12 |
| i | Cc1csc(SCC2CCN(C(=O)Nc3ccc4c(c3)OCO4)CC2)n1 |
| i | CC(=O)c1ccc(NC(=O)Cn2nc3c4cc(-c5ccc(Cl)cc5)nn4ccn3c2=O)cc1 |
| i | CC(Cc1ccco1)NC(=O)C(=O)NCc1ccccc1 (stereo not given) |
| i | COc1ccc(CNC(=O)Cn2c(C)nc3c(c2=O)CN(Cc2ccccc2)CC3)cc1 |
| i | OCc1ccc(-c2ccccc2F)o1 |
| i | O=C(Cc1cccs1)Nc1cccc2ccc(-n3ccnc3)nc12 |

Random excerpt: 6 entries already listed
| GIRK2 act | mol |
| --- | --- |
| i | CC(C)CCN1C(=O)C(C)(C)COc2ccc(NC(=O)COc3ccc(Cl)cc3)cc21 |
| i | CCOc1ccc(NC(=O)Cn2nc(-c3ccccc3)c3sc(N4CCOCC4)nc3c2=O)cc1 |
| i | O=C(NCCC(O)C1CC1)c1ccc(Cl)s1 (stereo not given) |
| i | Cc1ccc2nc(-c3ccc(NC(=O)c4ccc(-n5cccn5)nn4)cc3)sc2c1 |
| i | Cc1ccc2sc(N(Cc3ccncc3)C(=O)c3ccc(S(=O)(=O)C(C)C)cc3)nc2c1C |
| i | CS(=O)(=O)N1CCC(C(=O)N2CCN(c3cc(Nc4ccccn4)ncn3)CC2)CC1 |

Not all compounds are listed, so the mix of outcomes need not match the whole.
